VDR inh – vitamin D3 receptor (human) inhibition; VDR-SRC2-3 peptide fluorescence polarization, 2 h; AID 504847; 0.93% of 400,000 active; Potency, µM, for inactives: max response, negative = inhibition, most hits filed as inhibitors; active = well fitted inhibition curve with a large enough effect; inconclusive = small, poorly fitted or top-dose-only effect, or another doubt; inactive = no such curve, though single readings can be large or run the other way; note: series mostly up to about 120 µM
Target sequence (P11473 whole entry, looked up): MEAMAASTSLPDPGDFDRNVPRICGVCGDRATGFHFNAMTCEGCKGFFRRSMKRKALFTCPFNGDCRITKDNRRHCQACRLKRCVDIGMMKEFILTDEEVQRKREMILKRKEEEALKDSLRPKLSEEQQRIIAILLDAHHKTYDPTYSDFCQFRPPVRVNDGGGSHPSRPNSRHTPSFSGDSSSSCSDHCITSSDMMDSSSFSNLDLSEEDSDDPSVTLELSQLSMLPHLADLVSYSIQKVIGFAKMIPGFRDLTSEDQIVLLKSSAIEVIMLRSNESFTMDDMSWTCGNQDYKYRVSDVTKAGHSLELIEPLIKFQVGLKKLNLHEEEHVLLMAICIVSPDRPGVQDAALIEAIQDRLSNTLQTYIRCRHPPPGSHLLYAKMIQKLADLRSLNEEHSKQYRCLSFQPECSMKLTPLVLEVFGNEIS
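Fluorescence polarization assay measuring small-molecule disruption of VDR binding to the coregulator peptide SRC2-3. Compounds were pin-transferred (23 nl) into the reagent mix and incubated 2 h at room temperature before reading.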
Numbers without * were called inactive; u = inconclusive; & = joins results of further samples. % is set by controls: 0 for no effect and ±100 for the full control effect; potency is the fitted concentration of half-maximal effect.

Molecule | VDR inh
CN(CC(=O)Nc1cccc(F)c1)C(=O)c1cccc(N2C(=O)CCC2=O)c1 | 13%
Cc1ccc(OCc2ccc(C(=O)N3CCCC3)o2)c([N+](=O)[O-])c1 | 3%
CCn1c(SCC(=O)N/N=C/c2ccc(C)o2)nnc1-c1ccc(C(C)(C)C)cc1 | -22%
COCc1c(C(=O)NC2CCCCC2)sc2cccc(F)c12 | -9%
O=C(CCc1nnc2ccc(N3CCC4(CC3)OCCO4)nn12)NCc1ccccc1Cl | 3%
Cc1cccc(Nc2nnc(SCC(O)=C(C#N)c3nc4ccccc4[nH]3)s2)c1 | 16%
C=CCn1c(COc2ccccc2C)nnc1SCC(=O)O | 9%
CC(NC(=O)COC(=O)CCc1nc2ccccc2c(=O)[nH]1)c1ccccc1 (configuration not stated) | -15%
COc1ccc(CN(C)S(=O)(=O)c2nnc(NC(=O)c3cccc(C)c3)s2)cc1OC | -2%
NC(=O)CCC(NC(=O)c1ccc(Cl)cc1)C(=O)NCCc1ccc2c(c1)OCCO2 (configuration not stated) | -19%
CCOc1ccc(NC(=O)CSc2nnc3c(n2)[nH]c2ccc(S(=O)(=O)N4CCOCC4)cc23)cc1 | 4%
CC(C)(CNS(=O)(=O)c1cccs1)N1CCOCC1 | 11%
CCn1c2ccccc2c2cc(NC(=O)CSc3nnc(-c4ccc(OC)cc4)n3N)ccc21 | -3%
CC(C)C(=O)N1CCN(c2ccccc2NC(=O)c2ccc3c(c2)OCCO3)CC1 | 3%
Cc1ccc2nc(SCC(=O)N/N=C/c3ccc(C(=O)O)cc3)cc(C)c2c1 | 3%
O=c1cc(-c2ccccc2)nc(SCc2ccc(F)cc2)[nH]1 | -5%
Cc1cccc(-n2c(CNC(=O)COc3ccccc3)nnc2SCC(=O)Nc2nccs2)c1 | 2%
Cc1cc2oc3c(c(=O)c2cc1C)C(c1cccc(Br)c1)N(Cc1ccco1)C3=O (configuration not stated) | 21%
O=C(CSc1nnnn1Cc1ccccc1)NC1CCCCC1 | -19%
CCc1ccc(C2NC(=S)NC3=C2C(=O)CCC3)cc1 (configuration not stated) | -27%
COc1ccc(C(C(=O)NC2CCCCC2)N(C(=O)c2ccco2)c2ccccc2C(C)=O)cc1OC (configuration not stated) | 1%
O=C(/C=C/NCc1ccc(F)cc1)c1ccccc1 | -9%
COc1ccc(/C=C/C(=O)OCC(=O)Nc2ccc(Cl)c(S(=O)(=O)N(C)C)c2)cc1OC | -5%
N[C@@H](COP(=O)(O)O)C(=O)O | -6%&5%&-11%
O=c1[nH]nc(Cc2ccccn2)c2ccccc12 | -13%
COc1ccc(CC2SC(=Nc3ccc(F)cc3)NC2=O)cc1 (configuration not stated) | -22%
CN1CCN(C(=O)c2ccc3c(c2)N(Cc2ccc(F)cc2)C(=O)c2ccccc2S3(=O)=O)CC1 | -5%
COc1ccc(C(=O)CCC(=O)Nc2cc(Cl)c(O)c(Cl)c2)cc1 | 4%
Cn1cccc1/C=C1\SC(=Nc2cccc(O)c2)NC1=O | 13%
CCOc1ccccc1NC(=O)c1c(NCc2ccc(OC)c(OC)c2OC)sc2c1CCC(C)C2 (configuration not stated) | -4%
CN1CCN(C2CCCCCC2)CC1 | 5%
O=C(Nc1cccc(O)c1)c1cccc(S(=O)(=O)Nc2cccc(O)c2)c1 | 0%
NC(=S)NCCC[C@H](N)C(=O)O | 50µM*
COc1ccc(-c2c(-c3cc(OC)cc(OC)c3)n(C)c3ccc(-c4cnc(OC)nc4)cc23)cc1 | -7%
CN=c1c([N+](=O)[O-])nn(-c2ccc3c(c2)OCCO3)n1O | -19%
COC(=O)c1ccc(OC)c(CSc2nnc(COc3ccc(Cl)cc3)o2)c1 | 0%
CC(C)C(=O)N=C1NC(=O)CS1 | -3%
Cc1ccc(C(=O)N2CCN(C/C=C/c3ccccc3)CC2)cc1S(=O)(=O)N1CCOCC1 | -14%
CN(C)c1cc(NC(=O)CN2CCCC2)c2ccccc2n1 | -9%
Nn1c(SCC(=O)Nc2ccc3c(c2)OCCO3)nnc(CCC(=O)O)c1=O | u
COCCCNC(=O)Cn1nc(-c2ccccc2OC)ccc1=O | 5%
COc1ccc(-c2nc(CS(=O)CC(=O)NC3CCCC3)c(C)o2)cc1 (configuration not stated) | u
CCC(=O)NC(=S)Nc1ccc(-c2nc3ccccc3s2)cc1 | -3%
O=C(O)c1ccc(NC(=O)c2cn(-c3ccccc3)nc2-c2ccc(Br)cc2)cc1 | -1%&-15%
CCc1ccc(-n2c(=O)c3ccccc3n(CC(=O)C(C)(C)C)c2=O)cc1 | 7%
O=C1CCc2cc(S(=O)(=O)NCCCC(=O)N3CCN(Cc4ccc5c(c4)OCO5)CC3)ccc2N1 | 2%
Cc1ccccc1NCc1cccn1-c1nnc(N2CCC(C)CC2)s1 | -7%
Oc1ccc(N2CCN(c3ccnc4cc(Cl)ccc34)CC2)cc1 | -9%
Cc1cc2nnc(SCc3ccc4c(c3)OCO4)n2c2ccccc12 | 2%
CCc1cc(CNC(=O)c2cc(COc3ccc(C)nc3)on2)on1 | -6%
COc1ccc(Cc2nnc(NC(=O)c3cc(OC)cc(OC)c3)s2)cc1 | 24%
CCCCn1c(N)c(N(CC(C)C)C(=O)CN(C)Cc2cccc(OC)c2)c(=O)[nH]c1=O | 5%
O=C(COC(=O)c1ccc(Cl)nc1)NCc1ccco1 | 14%
O=c1c(=O)n(O)c2ccccc2n1O | 2%
CC1=C(C(=O)OCc2ccc([N+](=O)[O-])cc2)N2C(=O)C(NC(=O)Cc3ccccc3)C2SC1 (configuration not stated) | -2%
Cn1cnnc1SC1CCCCC1NS(=O)(=O)c1ccc(Cl)cc1 (configuration not stated) | 14%
COc1cc(C2Nc3ccccc3C(=O)N2c2ccccc2)ccc1O (configuration not stated) | 9%
COC1CCN(C(=O)c2cc(COc3ccc(-n4cncn4)cc3)on2)CC1 | 7%
Cn1nc(C(=O)NCC(c2cccs2)N2CCOCC2)c2ccccc2c1=O (configuration not stated) | 9%
COc1ccc(OC)c(NC(=O)C2=C(C)NC(=O)NC2c2cccs2)c1 (configuration not stated) | 4%

Further entries:
Molecule | VDR inh
O=C(CCc1nnc2ccc(NCc3ccccc3)nn12)NC1CCCC1 | -12%
CCOC(=O)CSc1nc(N)nc(C)c1Br | 12%
C[C@H](/C=C/[C@@]1(O)[C@H](C)C[C@H](O)CC1(C)C)O[C@@H]1O[C@H](CO)[C@@H](O)[C@H](O)[C@H]1O | 6%
O=C(O)C1C2C=CC(C2)C1C(=O)N1CCN(C/C=C/c2ccccc2)CC1 (configuration not stated) | -8%
O=C(NNC(=O)c1ccc2nc[nH]c2c1)c1ccccc1 | -16%
Cc1ccc(C)c(-c2nnc(NC(=O)CCS(=O)(=O)c3ccc(F)cc3)o2)c1 | 15%
OCCNc1nc2nonc2nc1NCCO | -6%
O=S(=O)(c1cccc2nonc12)N1CCCCCC1 | -11%
O=c1c2cc(-c3ccccc3)sc2nc2n1N=C(c1ccccc1)CS2 | -7%
CCN(CC(=O)Nc1ccc(NC(C)=O)cc1)CC(=O)Nc1ccccc1C(=O)c1ccccc1 | -6%
Cc1cc(C)c2nc(-c3ccccn3)cc(C(=O)NCCc3ccc(S(N)(=O)=O)cc3)c2c1 | 17%
CCC(CC)NC(=O)COC(=O)c1ccc2c(c1)C(=O)N(Cc1ccco1)C2=O | 6%
CC(C)(C)[C@H]1C=C(C(=O)N2CCN(Cc3ccc4c(c3)OCO4)CC2)O[C@@H](OCCCCO)C1 | 0%
COCCCNC(=O)COc1ccc(S(=O)(=O)NCc2ccccc2)cc1Cl | -5%
C=C(C)[C@H]1CC=C(CO)CC1 | 2%
CN(C)S(=O)(=O)c1ccc(C(=O)NC2CCCc3ccccc32)cc1 (configuration not stated) | -11%
Cc1ccc(CSC2=Nc3ccccc3C3=NC(CCC(=O)NCc4ccco4)C(=O)N23)cc1 (configuration not stated) | 6%
COc1ccc(-c2nc(SCC(=O)NCc3ccco3)c(-c3ccccc3)[nH]2)cc1OC | 1%
Cc1nn(CCCC(=O)NCc2cccc(F)c2)c(=O)c2nn(-c3ccccc3)c(C)c12 | 3%
Cc1cc2sc3ccc(C#CC4(O)CCCCC4)cc3c(=O)c2cc1C | -3%
Cc1ccc(S(=O)(=O)N(Cc2cccc(C)c2)C(=O)N2CCN(C)CC2)cc1 | 1%
COc1cc(CNC2CCCCC2OC)cc(OC)c1 (configuration not stated) | -20%
CC(Sc1nnc(-c2ccco2)n1N)C(=O)NCc1ccc2c(c1)OCO2 (configuration not stated) | -15%
O=C(O)COc1ccccc1/C=N/NC(=O)CSc1nc2ccccc2n1Cc1ccccc1 | 15%
Cc1ccccc1OCC(=O)N/N=C/c1ccc(N(C)C)cc1 | 0%
O=C(O)CC/C(=N\Nc1ccc(S(=O)(=O)N2CCCC2)cc1[N+](=O)[O-])c1cccs1 | -14%
O=C1N=c2ccc([N+](=O)[O-])cc2=C1c1sc(=O)[nH]c1O | u
O=C(O)C1C2C=CC(C2)C1C(=O)N1CCOCC1 (configuration not stated) | 3%
Oc1ccc(Cn2cc[nH]c2=S)cc1 | 0%
Cc1noc(C)c1COC(=O)C1CCN(S(=O)(=O)c2ccc(F)cc2)CC1 | 8%
O=C(NC1CCCC1)c1ccccc1OCc1ccccc1 | -3%
COC(=O)c1ccc(C(=O)OC)c(NC(=O)CSCc2ccccc2Br)c1 | -12%
Cc1n[nH]c(C)c1Sc1ccccc1N=Cc1cc(Cl)cc([N+](=O)[O-])c1O | -3%
COc1ccc(NC(=O)CSc2n[nH]c(C(C)C)n2)c([N+](=O)[O-])c1 | 9%
Cc1cc2cc3c(C)cc(=O)oc3c(C)c2o1 | -12%&-2%
CCC(=O)N(CCc1ccc(OC)c(OC)c1)Cc1cc2ccc(C)cc2n2nnnc12 | 4%
CCC1CCCCN1Cc1nc2c(c(=O)n(C)c(=O)n2C)n1CCCc1ccccc1 (configuration not stated) | -5%
COc1ccc(CN2CCC(Cc3ccccc3)CC2)cc1OC | u
Cn1nc(C(=O)Nc2nc3ccccc3[nH]2)c2ccccc2c1=O | 7%
O=C(CN1N=C(c2ccc(Cl)cc2)CCC1=O)NCCc1ccc(Cl)cc1 | 20%
O=C(Nc1cc2c(cc1C(=O)c1ccc(Br)cc1)OCCO2)c1ccc(Cl)cc1 | -18%
COc1ccccc1CNC(=O)c1ccc2nc(N3CCOCC3)sc2c1 | -17%
Cc1cccc(CCNC(=O)C2CCN(S(=O)(=O)c3cccc4cccnc34)CC2)c1 | -6%
CN(CC(=O)Nc1ccc(Cl)c(Cl)c1)C(=O)CC1OC(=O)c2ccccc21 (configuration not stated) | -12%
CCc1nnc(NS(=O)(=O)c2ccc(N/C=C/C(=O)c3ccc(C)cc3)cc2)s1 | -12%
CCC(CC)C(=O)N1c2ccccc2C(C)(c2ccccc2)CC1(C)C (configuration not stated) | -15%
O=C(COC(=O)c1cc([N+](=O)[O-])ccc1Cl)NC1CCCC1 | -1%
CCc1cc2cc3c(cc2nc1SCC(=O)N1CCN(C(=O)c2ccco2)CC1)OCO3 | -2%
COc1ccccc1NS(=O)(=O)c1cc(N)ccc1N1CCCC1 | 89µM*
c1csc(-c2nn[nH]n2)c1 | 15%
O=C(NCc1ccco1)c1nnc(Cc2ccc(F)cc2)o1 | 0%
c1ccc(C(c2ccccc2)N2CCN(Cc3nnnn3C3CCCC3)CC2)cc1 | -10%
COC(=O)c1nnn(-c2nonc2N)c1CSc1ccc(Cl)cc1 | -7%
CCCNC(=O)OCC12CC3CC(CC(C3)C1)C2 | -17%
COc1cc(NS(=O)(=O)c2cn(C)cn2)cc(OC)c1 | -11%
O=[N+]([O-])c1ccc(S(=O)(=O)Nc2cccc(-c3ccc(N4CCOCC4)nn3)c2)cc1 | -9%
CC(C)Sc1nc2ccc(N3C(=O)C4CCCCC4C3=O)cc2s1 (configuration not stated) | -17%
CCSc1nnc(Cn2c(=O)sc3ccccc32)n1C | u
O=C(CSc1ccc(-c2ccncc2)nn1)N1CCCC1 | 18%
O=C(COc1ccc(Cl)cc1)NCc1cn2cc(Cl)ccc2n1 | -7%

Other structures follow:
Molecule | VDR inh
CC(=O)c1ccc(NC(=S)NC(C)c2ccc(Cl)cc2Cl)cc1 (configuration not stated) | -13%
COc1ccc(S(=O)(=O)c2c(O)c3ccc(C(=O)Nc4ccc(F)cc4F)cc3[nH]c2=O)cc1 | -4%
O=C(Cn1ncc2c3ccccc3n(Cc3ccc(F)cc3)c2c1=O)NC1CCCCCC1 | -1%
Cc1ccc(C2=C(c3ccc([N+](=O)[O-])cc3)C(=O)OC2)cc1C | -18%
CCOC(=O)N1CCN(Cc2nc(Cc3cccc(C(F)(F)F)c3)no2)CC1 | -7%
C[C@H](CO)N1C[C@H](C)[C@@H](CN(C)S(=O)(=O)c2ccccc2)Oc2c(NC(=O)C3CC3)cccc2C1=O | -1%
CCOC(=O)/C=c1/s/c(=C/c2ccc3cc(OC)ccc3c2)c(=O)n1CC(=O)NCc1ccc2c(c1)OCO2 | 5%
Cc1ccc(CSc2cc(C)[nH]c(=O)n2)cc1 | 0%
COc1ccc(CCNC(=O)c2cnc3sc(N4CCCCCC4)nn3c2=O)cc1 | -4%
COCCCn1c(=O)c2sccc2n2c(CCCC(=O)N(C)Cc3ccco3)nnc12 | -10%

Not all compounds are listed; count on the stated rates, not on these rows.
